T cruzi repl: blocks replication of Trypanosoma cruzi; T. cruzi beta-gal in NIH3T3, luminescence, 90 h; inhibition, % (concentration not given with the values); actives 1.4% (n = 300,000); AID 1885;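 active = mean inhibition across valid replicates above about 55%, limit read from the data; inconclusive = mean below that limit but half or more replicates reach it; inactive = mean below it, under half of replicates reach it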;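 also: signal also drops with host cell toxicity which is not excluded here; 0% = plate median of DMSO wells and 100% = zero luminescence signal; higher percent means less beta-gal luminescence so fewer parasites; stock transfer was 50 nL into about 50 µL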
Bfl-1 A1 inh: inhibitors of the anti-apoptotic protein A1, read as caspase activation. caspase activation, % (test concentration not listed). AID 2462. MEF A1-2A-BIM cells, Caspase-Glo 3/7 luminescence, 3 h; percent of clofoctol response, vehicle zero. actives 0.066% (n = 330,000);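 active = over half of replicate activation scores above 10%, or exactly half above 10 with the replicate mean above 10; inconclusive = replicate mean below 10 yet half the replicates above 10; inactive = over half of replicates below 10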;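 also: wells of about 30 µL received 50 nL stock; many hits fall short of the cut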
UCH37 DUB inh: blocks the human deubiquitinase UCH37 | Q9Y5K5 | purified proteasome/UCH37, Ub-AMC cleavage fluorescence | inhibition, % (no concentration beside the values) | actives 0.33% (n = 330,000);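 active = mean of two replicates above 20%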;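 also: 0% = compound-free wells with enzyme and 100% = wells lacking proteasome; stock transfer was 100 nL into about 20 µL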
Target sequence (Q9Y5K5 whole entry, looked up): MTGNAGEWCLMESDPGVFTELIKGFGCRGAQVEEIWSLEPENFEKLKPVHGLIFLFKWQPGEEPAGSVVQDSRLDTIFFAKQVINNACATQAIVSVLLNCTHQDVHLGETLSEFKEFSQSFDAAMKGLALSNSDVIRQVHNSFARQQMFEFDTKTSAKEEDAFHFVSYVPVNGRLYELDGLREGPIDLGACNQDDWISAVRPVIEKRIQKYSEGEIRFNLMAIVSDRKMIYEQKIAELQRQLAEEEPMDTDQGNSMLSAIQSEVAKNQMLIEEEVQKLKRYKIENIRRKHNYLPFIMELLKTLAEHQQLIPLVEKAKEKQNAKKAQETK
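Material: Human UCH37 enzyme supplied as purified proteasome complex | Schedule: 30 min preincubation with enzyme, 25 min cleavage at room temperature | Detection: AMC fluorescence 355/460 nm | Measure: % inhibition of Ub-AMC cleavage fluorescence | Controls: Wells without proteasome as full block, compound-free enzyme plus substrate as uninhibited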
Beta cell apopt: blocks beta cell apoptosis. protection from apoptosis, % (concentration not given with the values). actives 0.8% (n = 300,000). INS-1E cytokine-induced death, ATP luminescence, 48 h; percent of positive-control rescue, neutral wells zero;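 active = all replicates at 75% or more, or half of them and the mean; inconclusive = half reach 75% but not the mean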;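 also: 0% = cytokine-treated negative control wells and 100% = positive control rescue; higher means more ATP so stronger rescue from cytokine killing; wells of about 40 µL received 100 nL stock; the first replicate is given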
LANA-H2A inh: blocks KSHV LANA binding to histone H2A/H2B. Q9QR71. cell-free LANA-H2A/H2B peptide, fluorescence polarization. inhibition, % (concentration not given with the values). actives 0.6% (n = 320,000); in the data active = inhibition mostly above about 10%, no sharp cut-off; inactive = mostly below about 6.7%;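 also: stock transfer was 7.5 nL into about 10 µL; 0% = median of vehicle wells and 100% = median of positive control wells; one replicate is shown; the record names a cut of 25% in any replicate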
RanGTP-Impb inh: inhibitors of RanGTP-importin-beta interaction, primary screen, biochemical, FRET, CFP-Ran, YFP-importin-beta, homogeneous. AID 2216. actives 1.1% (n = 300,000). inhibition, % (concentration not given with the values). cell-free CFP-Ran/YFP-importin-beta FRET ratio;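 active = most replicates above 15%; inconclusive = exactly half above 15%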;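 also: 0% = DMSO wells and 100% = Ran loaded with GDP instead of GTP; wells of about 40 µL received 100 nL stock; the first replicate is given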
Beta2AR agonist: activates human beta-2 adrenergic receptor causing internalization. response, % (no concentration beside the values). AID 504454. P07550. actives 0.43% (n = 340,000). Am2.2-beta2AR cells, FAP receptor internalization, flow cytometry; reference of the scale not given here;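 active = response above a set limit, near 3 SD of response in nonfluorescent compounds, cut at about 42% in these data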;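 also: stock transfer was 100 nL into about 11 µL; a reference agonist was the positive control; negative values mostly stem from fluorescent compounds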
Target sequence (P07550 whole entry, looked up): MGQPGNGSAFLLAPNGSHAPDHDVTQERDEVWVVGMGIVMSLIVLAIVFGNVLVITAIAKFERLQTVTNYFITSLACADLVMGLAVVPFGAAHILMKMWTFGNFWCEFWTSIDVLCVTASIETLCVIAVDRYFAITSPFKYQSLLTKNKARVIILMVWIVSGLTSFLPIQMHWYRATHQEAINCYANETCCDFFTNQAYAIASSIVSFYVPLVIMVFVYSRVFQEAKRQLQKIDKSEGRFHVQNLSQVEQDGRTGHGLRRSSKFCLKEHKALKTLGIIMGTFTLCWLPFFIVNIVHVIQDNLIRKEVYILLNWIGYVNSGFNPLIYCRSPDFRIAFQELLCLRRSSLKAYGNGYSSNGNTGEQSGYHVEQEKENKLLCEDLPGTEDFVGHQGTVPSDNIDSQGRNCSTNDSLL
Calb FLC: C. albicans growth modulation with fluconazole. actives 0.57% (n = 300,000). AID 1979. growth inhibition, % (no concentration beside the values). C. albicans CaCi-2 (fluconazole-resistant clinical isolate) + fluconazole, Alamar Blue growth, 48 h;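 active = most replicates above 75%; inconclusive = exactly half above 75%; inactive = most below 75%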;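 also: all wells also contain fluconazole at 8 µg/ml as a sub-toxic cotreatment; 0% = median of DMSO wells and 100% = median of geldanamycin control wells; wells of about 8 µL received 7.5 nL stock; the first replicate is given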
Active calls of the source: *; ? = inconclusive; nt = not tested or not shown.

no.	structure	T cruzi repl	Bfl-1 A1 inh	UCH37 DUB inh	Beta cell apopt	LANA-H2A inh	RanGTP-Impb inh	Beta2AR agonist	Calb FLC
1	O=C(NCC1CC1)c1ccccc1Cl	1	1.3	0.5	-5	-0.4	-1.0	-2	-1
2	C#CCOCCOCCOCCNc1nc(N2CCN(C(=O)C([C@@H](C)CC)n3cc(C(N)CO)nn3)CC2)nc(N2CCN(C(=O)[C@H](CCC(=O)O)n3cc(C(N)CC(C)C)nn3)CC2)n1 (stereo not given in full)	-11	-0.5	3.0	11	-7.6	-0.6	5	1
3	COc1ccc(NC(=O)c2ccc(C(=O)c3cc(OC)ccc3OC)cc2)cc1	4	-0.1	1.0	9	-5.1	?	13	7
4	S=C1NCCOCCNC(=S)NCCOCCOCCOCCN1	14	0.3	0.6	-5	-0.3	5.6	0	0
5	Cc1[nH][nH]c(=O)c1C(c1ccc(O)c([N+](=O)[O-])c1)c1c(C)[nH][nH]c1=O	1	-0.2	7.1	-4	16	-1.9	-5	-2
6	O=C(/C=C/c1cccs1)N1CCCCC1	-1	-0.9	1.7	-1	3.3	3.6	-1	-1
7	COc1ccc(N2CCN(C3CC(=O)N(c4ccc5c(c4)OCCO5)C3=O)CC2)cc1 (stereo not given)	-9	0.1	0.3	-2	0.4	7.4	1	-1
8	CCN(CC)CCOc1ccc(/C(=C(\Cl)c2ccccc2)c2ccccc2)cc1	50	0.2	1.6	44	-1.1	3.0	60*	-30
9	CCCCS(=O)(=O)N1CCN(S(=O)(=O)c2ccc(Cl)s2)CC1	7	1.1	2.5	nt	-0.8	0.2	3	3
10	O=C(CCc1ccncc1)N1CCCC(Nc2ccc(F)cc2)C1 (stereo not given)	9	-0.8	2.8	-4	-3.2	-0.6	-5	-4
11	O=C(c1cn(-c2ccccc2)nc1-c1ccc(F)cc1)N1CCCCC1	19	0.1	0.1	7	1.7	7.2	-25	-7
12	CCCCNC(=O)Cc1ccc(Br)cc1	2	0.9	5.0	0	-7.5	1.0	0	32
13	COc1cc(/C=N/NC(=O)C2COc3ccccc3O2)cc(OC)c1OC (stereo not given)	-14	0.0	nt	3	-0.4	8.1	1	17
14	Nc1nc(SCC(=O)N2CCCCC2)[nH]c(=O)c1NC(=O)c1ccccc1F	-6	0.6	0.6	-4	-1.6	-1.5	2	-1
15	COc1cc(S(=O)(=O)NCc2ccncc2)c(OC)cc1Cl	-6	0.4	2.5	-1	-2.9	-0.6	8	-21
16	Fc1ccc(CSc2nnc(-c3cnccn3)n2Cc2ccco2)cc1	-10	0.2	3.5	-7	0.3	-1.7	-14	?
17	O=C(NNc1cc(Cl)ccc1Cl)c1cccnc1Cl	-28	0.2	0.5	1	6.8	2.5	-1	-20
18	Cc1cccc(C)c1NC(=S)N=Nc1c(O)n(C)c2ccc(S(=O)(=O)N3CCOCC3)cc12	18	0.5	12	9	1.7	-2.8	8	-7
19	Cc1ccc(NC(=O)c2nc(S(=O)(=O)Cc3ccccc3)ncc2Cl)cc1	-7	1.4	nt	109*	-1.9	-2.8	13	8
20	CCc1ccc(C2=NN(c3ccc(S(N)(=O)=O)cc3)C(c3ccc(F)cc3)C2)cc1 (stereo not given)	29	0.9	-349	18	-2.0	?	12	?
21	Cc1ccc(C(=O)NCc2ccc3c(c2)OCO3)cc1S(=O)(=O)N1CCCCC1	33	0.1	2.8	3	5.9	-0.3	-5	?
22	Cc1cccc(C(=O)NCc2nnc(SCc3ccc(F)cc3)n2C)c1	-5	2.0	1.0	nt	4.9	-0.2	1	0
23	COCCOC(=O)c1c(NC(=O)CN2CCOCC2)sc(C(N)=O)c1C	14	0.6	4.4	-5	-3.8	-1.9	11	12
24	COc1cc(/C=C2\SC(=S)N(CCC(=O)Nc3ccccn3)C2=O)cc(OC)c1OC	-1	0.4	2.9	-3	2.6	-9.7	5	-9
25	O=C(CC(C(=O)O)C1CCCO1)Nc1cccc(C(F)(F)F)c1 (stereo not given)	-13	-0.4	1.2	0	2.2	4.2	2	-28
26	COc1ccc(S(=O)(=O)NC2CCCCC2)cc1C	7	0.0	2.8	-2	1.3	8.0	-6	-20
27	CCc1nc(SCC(=O)Nc2ccc(OC)cc2[N+](=O)[O-])n[nH]1	-4	0.6	3.2	-4	8.2	-3.3	-5	6
28	COc1ccc(-c2ccc(SCC(=O)c3ccc(F)cc3)nn2)cc1OC	20	-0.2	2.0	-4	1.8	-1.6	-4	-5
29	CSc1ncccc1C(=O)NC(C)CCc1ccccc1 (stereo not given)	-17	-0.5	5.7	-6	-0.9	2.5	-1	7
30	CCC(=O)N(Cc1cc2ccc(C)cc2n2nnnc12)C1CCCCC1	14	-0.2	0.6	0	14	-2.7	-15	4
31	CCC(CO)Oc1cc(NCc2cccc(O)c2)c2ncn(C(C)C)c2c1 (stereo not given)	nt	0.8	5.0	-9	1.0	nt	-7	nt
32	O=C(Cn1cc([N+](=O)[O-])cn1)N1CCc2ccccc21	-4	-0.2	0.1	-9	-3.5	4.2	-9	-9
33	Oc1ccc(/C=N/Nc2ncnc3c2ncn3Cc2ccccc2)cc1O	-8	-0.4	nt	2	-1.7	?	19	3
34	Cc1nnsc1-c1nnc(SCC(=O)c2ccc(C#N)cc2)n1C1CC1	-26	-2.3	0.1	-2	-3.5	2.0	6	0
35	CCCCCC(=O)Nc1ccc(S(=O)(=O)Nc2nccc(C)n2)cc1	-16	0.0	3.8	-3	-0.1	-0.2	-4	-2
36	CCn1cnc2cc(NCc3cccc(OC)c3O)ccc21	-8	0.5	-4.9	-2	-0.6	?	-1	4
37	COC(=O)c1ccc(Oc2ccc3nnc(C)n3n2)cc1	-3	0.9	-0.5	-1	-4.3	-3.4	21	-1
38	O=C1CCc2cc(S(=O)(=O)NCc3ccccc3Cl)cc3c2N1CC3	-31	0.1	-2.0	0	-2.7	2.3	-11	-3
39	CCN(Cc1ccccc1)C(=O)C(C)OC(=O)c1cc(S(=O)(=O)Nc2c(C)n(C)n(-c3ccccc3)c2=O)ccc1C (stereo not given)	14	1.6	0.4	6	0.2	-1.1	-3	7
40	CCOC(=O)/C(C#N)=C/c1cccn1-c1ccc(Cl)cc1	-1	-0.5	-57	3	19	-2.1	10	2
41	CCOC(=O)c1c2c(n(C)c1C)C(=O)C(=O)c1ccc(Br)cc1-2	-17	0.3	56*	57	0.7	-4.0	-2	-33
42	Cc1nc(-c2nc(-c3c(C(=O)NN)noc3C)cs2)cs1	5	-0.7	0.4	6	0.6	0.4	-5	42
43	CCCC1Cc2nc(N3CCCCC3)c(C#N)cc2CO1 (stereo not given)	30	0.7	-43	4	1.3	-0.1	-8	-3
44	CCC(=O)Nc1c2c(nn1-c1cccc(Cl)c1)CSC2	-7	0.3	5.6	nt	-0.9	6.4	2	5
45	COCCCn1cc(C(=O)c2cc(Br)ccc2O)cc(C#N)c1=O	-2	-0.9	4.4	5	-0.3	3.8	-4	3
46	Cn1c(/C=C/c2ccccc2)nc2ccccc2c1=O	-16	-3.7	3.0	9	-5.2	0.5	8	2
47	Cc1nc(SCc2cccc(Oc3ccccc3)c2)n[nH]1	10	-0.7	7.9	-2	4.9	-2.0	-15	2
48	Cc1cccc(NCc2nc3ccccc3n2C)c1	8	-1.8	5.4	1	-2.7	-17	-3	2
49	COC(=O)c1c(C)[nH]c(C)c1C(C)=O	-7	0.3	0.1	nt	-2.5	0.2	-7	-3
50	Cc1ccc(CNC(=O)Cc2ccc(-n3cccc3)cc2)cc1	-33	0.1	4.7	-3	0.8	3.2	-3	-5
51	COc1cc2cc(CCCOC(=O)c3cccc(Br)c3)oc(=O)c2cc1OC	nt	1.3	2.0	-3	1.6	nt	-2	nt
52	CCOC(=O)C1CCN(C(=O)c2cccc(S(=O)(=O)Nc3ccc(C)cc3C)c2)CC1	22	-0.5	4.3	-3	-4.5	-0.1	14	13
53	COc1ccc2[nH]c3c(NCCC4=CCCCC4)ncnc3c2c1	87*	nt	-21	nt	nt	2.2	45*	5
54	S=C(NCCNC(=S)Nc1ccccc1Cl)Nc1ccccc1Cl	-7	0.1	2.9	-1	2.6	0.6	-11	-3
55	NNC(=O)c1ccccc1CO	-4	-0.3	4.1	-4	-5.7	1.6	nt	3
56	CCOC(=O)c1cnn(-c2ncnc3sc4c(c23)CCC4)c1N	2	-0.2	2.5	-7	0.2	-1.0	1	13
57	Cn1c(C(=O)OC(C(=O)NC(C)(C)C)c2cccnc2)cc2sccc21 (stereo not given)	64*	0.2	3.2	-9	4.3	1.3	-18	-53
58	Cc1ccc(-c2cc(-c3ccccc3)nc(N/N=C/c3cccnc3)n2)cc1	0	-0.6	nt	2	0.4	nt	0	16
59	Cc1nn(-c2ccccc2)c2c1c(C)c(CCC(=O)N1CCOCC1)c(=O)n2C	1	-0.3	4.4	2	-0.4	1.0	6	9
60	O=C(Cn1cnc2cc([N+](=O)[O-])ccc2c1=O)Nc1ccc2c(c1)CCC2	64*	1.8	6.9	-3	1.5	-1.0	0	3

Carrying on.
no.	structure	T cruzi repl	Bfl-1 A1 inh	UCH37 DUB inh	Beta cell apopt	LANA-H2A inh	RanGTP-Impb inh	Beta2AR agonist	Calb FLC
61	CCOC(=O)c1csc(NC(=O)CN2CCCCC2)n1	5	0.3	3.7	nt	-1.5	-0.7	-3	4
62	COc1cccc(C(=O)OCC(=O)N2CCc3ccccc3C2)c1OC	nt	0.3	3.8	-1	0.3	nt	nt	nt
63	Cc1cccc(C)c1NC(=O)C1C2C=CC(C2)C1C(=O)O (stereo not given)	-7	0.1	3.3	-7	2.3	-3.0	-1	9
64	COc1ccc(C(=O)OCC2CC(c3ccccc3)=NO2)cc1OC (stereo not given)	3	0.3	0.9	-4	-3.4	5.8	1	10
